VDR inh: inhibitors of human vitamin D receptor; AID 504847; Potency, µM, for the others: max response, negative = inhibition, actives largely listed as inhibitors; VDR-SRC2-3 peptide fluorescence polarization, 2 h; 400,000 compounds, 0.93% hits; P11473; active means well fitted inhibition curve with a large enough effect; inconclusive means small, poorly fitted or top-dose-only effect, or another doubt; inactive means no such curve, though single readings can be large or run the other way; further: series mostly up to about 120 µM
Target sequence (P11473 whole entry, looked up): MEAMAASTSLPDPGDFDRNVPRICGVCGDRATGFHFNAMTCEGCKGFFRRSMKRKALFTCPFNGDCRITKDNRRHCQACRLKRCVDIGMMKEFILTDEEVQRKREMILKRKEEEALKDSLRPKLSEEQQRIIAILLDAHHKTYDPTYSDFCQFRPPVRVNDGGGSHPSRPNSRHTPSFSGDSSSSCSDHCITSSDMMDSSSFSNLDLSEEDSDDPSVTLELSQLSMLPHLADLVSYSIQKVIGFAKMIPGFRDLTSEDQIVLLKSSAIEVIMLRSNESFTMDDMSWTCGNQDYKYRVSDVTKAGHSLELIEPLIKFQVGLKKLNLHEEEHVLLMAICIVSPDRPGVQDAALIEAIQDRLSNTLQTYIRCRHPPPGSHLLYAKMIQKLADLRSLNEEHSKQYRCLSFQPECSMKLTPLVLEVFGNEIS
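VDR–SRC2-3 interaction, FP format. Cmpds 23 nl via pintool, brief spin, 2 h ambient incubation.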
Active calls of the source: *; ? = inconclusive; & = joins results of further samples; [ ] = dose if it differs, or a comment. On the % scale 0 is the no-effect control and ±100 the full control effect; potency means the concentration at half of the fitted maximal effect. Only part of the results is shown; rates above refer to the full screens.

VDR inh	SMILES
10%	Nc1nonc1C(=O)OCC(=O)N1CCOCC1
17%	Cc1cc(=O)oc2cc(NS(=O)(=O)c3ccc(F)cc3)ccc12
-17%	COc1ccc(C2CC(c3cccs3)=NN2c2ccccc2)cc1 (stereo not given)
12%	COC(=O)c1sccc1NC(=O)C1CC=CCC1C(=O)O (stereo not given)
2%	O=C(COc1ccc(Cl)cc1Cl)Nc1ccccc1NS(=O)(=O)c1cccs1
13%	CC(=O)N1CCN(c2ccc(NC(=O)c3ccc([N+](=O)[O-])o3)cc2Cl)CC1
-6%	Cn1c(=O)c2c(nc(N3CCN(c4ccccc4)CC3)n2CCCc2ccccc2)n(C)c1=O
5%	CC(C)N1CCC(N2CCN(Cc3cc4c(cc3Cl)OCO4)CC2CCO)CC1 (stereo not given)
5%	COc1ccccc1-c1nc2ccccc2nc1-c1ccccc1
9%	CCOC(=O)C1=CN(CC)S(=O)(=O)NC1c1ccc(F)c(Cl)c1 (stereo not given)
23%	CCOC(=O)c1c(-c2cccc([N+](=O)[O-])c2)csc1NC(=O)C1CCCCC1
2%	COc1ccc(C(=O)NC(C(=O)N2CCN(c3ccccc3O)CC2)C(C)C)cc1 (stereo not given)
3%	COc1cc(CNC(C)C)c(Br)cc1OC1CCCC1
-3%	C[C@H](CO)N1C[C@H](C)[C@@H](CN(C)C(=O)NC2CCCCC2)Oc2c(NC(=O)CCC(F)(F)F)cccc2C1=O
2%	O=C(Cn1c(=O)oc2cc(S(=O)(=O)N3CCCC3)ccc21)Nc1cccc(C(F)(F)F)c1
5%	CCC(CC)NC(=O)c1cccc(NC(=O)C(C)C)c1
-12%	C=C(C)Cn1c(C)cc(C)c(S(=O)(=O)c2ccc(C)cc2)c1=O
-21%	OC(Cc1ccncc1)(c1ccccc1)c1ccccc1
-3%&-14%	O=S(=O)(c1cccc(C(F)(F)F)c1)N(CCCN1CCOCC1)Cc1cccs1
-3%	COC(=O)c1ccc(OCC2c3cc(OC)c(OC)cc3CCN2C(=O)c2ccc(OC)cc2)cc1 (stereo not given)
5%	O=C(Oc1cccc(-c2cnc3ccccc3n2)c1)c1ccco1
5%	COc1ccc(Cl)cc1C(=O)Nc1ccc(-c2nnc3n2CCCCC3)cc1
2%	CCC(c1nnnn1C1CCCC1)N1CCN(c2cccc(OC)c2)CC1 (stereo not given)
-19%	O=C(NN1CCOCC1)c1cn(-c2ccccc2)nc1-c1cccs1
0%	N#Cc1ccccc1CSCCNC(=O)Cc1c(F)cccc1Cl

No new results follow: entries from further up.
VDR inh	SMILES
12%	COC(=O)c1sccc1NC(=O)C1CC=CCC1C(=O)O (stereo not given)
2%	O=C(COc1ccc(Cl)cc1Cl)Nc1ccccc1NS(=O)(=O)c1cccs1
13%	CC(=O)N1CCN(c2ccc(NC(=O)c3ccc([N+](=O)[O-])o3)cc2Cl)CC1
-6%	Cn1c(=O)c2c(nc(N3CCN(c4ccccc4)CC3)n2CCCc2ccccc2)n(C)c1=O
5%	CC(C)N1CCC(N2CCN(Cc3cc4c(cc3Cl)OCO4)CC2CCO)CC1 (stereo not given)
5%	COc1ccccc1-c1nc2ccccc2nc1-c1ccccc1
9%	CCOC(=O)C1=CN(CC)S(=O)(=O)NC1c1ccc(F)c(Cl)c1 (stereo not given)
23%	CCOC(=O)c1c(-c2cccc([N+](=O)[O-])c2)csc1NC(=O)C1CCCCC1
2%	COc1ccc(C(=O)NC(C(=O)N2CCN(c3ccccc3O)CC2)C(C)C)cc1 (stereo not given)
3%	COc1cc(CNC(C)C)c(Br)cc1OC1CCCC1
-3%	C[C@H](CO)N1C[C@H](C)[C@@H](CN(C)C(=O)NC2CCCCC2)Oc2c(NC(=O)CCC(F)(F)F)cccc2C1=O
2%	O=C(Cn1c(=O)oc2cc(S(=O)(=O)N3CCCC3)ccc21)Nc1cccc(C(F)(F)F)c1
5%	CCC(CC)NC(=O)c1cccc(NC(=O)C(C)C)c1
-12%	C=C(C)Cn1c(C)cc(C)c(S(=O)(=O)c2ccc(C)cc2)c1=O
-21%	OC(Cc1ccncc1)(c1ccccc1)c1ccccc1
-3%&-14%	O=S(=O)(c1cccc(C(F)(F)F)c1)N(CCCN1CCOCC1)Cc1cccs1
-3%	COC(=O)c1ccc(OCC2c3cc(OC)c(OC)cc3CCN2C(=O)c2ccc(OC)cc2)cc1 (stereo not given)
5%	O=C(Oc1cccc(-c2cnc3ccccc3n2)c1)c1ccco1
5%	COc1ccc(Cl)cc1C(=O)Nc1ccc(-c2nnc3n2CCCCC3)cc1
2%	CCC(c1nnnn1C1CCCC1)N1CCN(c2cccc(OC)c2)CC1 (stereo not given)
-19%	O=C(NN1CCOCC1)c1cn(-c2ccccc2)nc1-c1cccs1
0%	N#Cc1ccccc1CSCCNC(=O)Cc1c(F)cccc1Cl

The results go on.
VDR inh	SMILES
2%	Cc1c(CC(Cl)(Cl)Cl)c2c(n1O)CC(C)(C)CC2=O
-8%	O=C(COC(=O)Cc1cccs1)Nc1ccccc1F
-18%	Cc1ccc2c(c1)c1c3n2CC(=C2C(=O)OC(C)(C)OC2=O)NC3CCC1 (stereo not given)
-1%	COc1ccc(-c2nc(-c3ccccc3)c(Nc3c(C)cccc3C)o2)cc1
10%	Cc1ccc(NC(=O)Nc2nnc(Cc3ccc(F)cc3)s2)cc1
5%	CC(C)CC1CCCCC1OC(=O)CN1CCCCC1 (stereo not given)
11%	Cc1cccc(NC(=O)CSc2ccc(-c3ccccn3)nn2)c1
9%	CC(C)(C)C(=O)Nc1ccccc1C(=O)Nc1ccncc1
-19%	CN(C)c1ccc(/C=N/NC(=O)CNC(=O)c2ccco2)cc1
-16%	C=CCOc1c(CNc2nccs2)cccc1OCC
1%	CCOC(=O)c1c(NC(=O)C(C)Sc2cn(CCNC(=O)c3ccc(OC)c(OC)c3)c3ccccc23)sc2c1CCC2 (stereo not given)
6%	COCCCNC(=S)NCCCNc1nc2cc(C)cc(C)c2cc1C#N
-3%	Cc1ccccc1CN(C)CC(=O)NC(C)CCc1ccccc1 (stereo not given)
-10%	COc1ccc(S(=O)(=O)N(C)c2ccc(OCC(=O)Nc3cc(C)on3)cc2)cc1
6%	CCOC(=O)c1[nH]c2ccc(Cl)cc2c1-c1ccccc1
-8%	Cn1c(=O)[nH]c(NC2CCCCC2)c(N=O)c1=O
-15%	CN(C)c1cccc(O)c1
7%	COc1ccc(-c2cc(C(=O)OCC(=O)Nc3cc(C)on3)c3ccccc3n2)cc1OC
-16%	Cc1nc(/C=C/c2ccccc2)cc(/C=C/c2ccccc2)n1
11%	O=S(=O)(NCc1cn2ccsc2n1)c1cccs1
-25%	CCOc1ccc(CCNC(=O)COC(=O)C2CC2)cc1OCC
1%	N#Cc1ccccc1NC(=O)c1ccc2c(c1)OCCO2
11%	CCn1c(C(=O)O)c(CC(=O)NC2CCCCCC2)c2ccccc21
-29%	COc1ccc2c(c1)CCc1sc(NC(=O)c3ccco3)nc1-2
4%	COc1cccc(-c2nn(C)c3sc(C(=O)N4CCN(c5cccc(C(F)(F)F)c5)CC4)cc23)c1
-29%	CCOc1cc2c(cc1OCC)C(c1c(F)cccc1Cl)CC(=O)N2 (stereo not given)
8%	CCCn1c(COc2ccccc2OC)nc2ccccc21
-14%	COc1cc2c(C(=O)N3CCN(c4ccc(C)cc4)C(C)C3)cn(CC(C)C)c(=O)c2cc1OC (stereo not given)
8%	COC(=O)c1ccc(N2C(=O)c3ccc(OC)c(OC)c3C2=O)cc1
12%	Cn1nc2c(c1C(=O)N1CCCC(C(=O)c3cc(F)ccc3F)C1)CCCC2 (stereo not given)
45µM*	O=c1[nH]c(/C=C\c2cccc(C(F)(F)F)c2)nc(O)c1[N+](=O)[O-]
3%	CCN1C(=O)C(=O)N(CC(=O)c2[nH]c(C)c(C(C)=O)c2C)C1=O
22µM*	COc1ccc(OC)c2c1C(=O)C(Cl)=C(Cl)C2=O
5%	O=C(CN1CCCCCC1)OCCN=C1NS(=O)(=O)c2ccccc21
-6%	COc1ccc(-n2c(SCC(=O)OC(C)C)nnc2-c2ccccn2)cc1
9%	NC(=O)c1nsc(C(=O)N(CC(=O)NCc2ccco2)c2ccccc2F)c1N
5%	CCCCn1cnc2c(SCc3ccccn3)nc(N)nc21
8%	COc1cc(C=O)cc(Br)c1OCC(N)=O
-7%	O=C(NN=C1CCCCCCCCCCC1)c1ccccc1F
-13%	COCc1[nH]nc2c1C(c1ccccc1F)C(C#N)=C(N)O2 (stereo not given)
-9%	COc1ccc(/C=N/NC(=O)c2cnccn2)c(OC)c1OC
1%	O=C(CN(Cc1cccs1)S(=O)(=O)c1ccc(S(=O)(=O)N2CCCCC2)cc1)Nc1ccccc1
9%	Cc1ncc(CO)c(/C=N/NC(=O)c2cc3c(s2)CCCC3)c1O
9%	COc1ccccc1C(=O)NC(CCSC)C(=O)OCC(=O)NC(=O)NCc1ccco1 (stereo not given)
?	CCCCCC(=O)Nc1cc(S(=O)(=O)N2CCCCC2)ccc1N1CCCCC1
10%	Cc1sc2c(c1C)CN(C(C)(C)C)CN2C(=O)c1ccccc1
?	O=C(COC(=O)CC1CC2CCC1C2)Nc1cccc(S(=O)(=O)NC2=NCCCCC2)c1 (stereo not given)
13%	CC(C)CNc1ncnc2c1cnn2Cc1ccccc1Cl
-5%	O=C(O)CC(NC(=O)c1ccncc1)c1ccccc1 (stereo not given)
0%	CCOC(=O)c1cnc(-c2ccccc2)nc1N

Quoted from the listing:
For VDR inh, COC(=O)c1ccc(N2C(=O)c3ccc(OC)c(OC)c3C2=O)cc1 is listed with 8%
For VDR inh, O=C(NN=C1CCCCCCCCCCC1)c1ccccc1F is listed with -7%

The listing picks up with the 2 entries that preceded the break.
VDR inh	SMILES
-5%	O=C(O)CC(NC(=O)c1ccncc1)c1ccccc1 (stereo not given)
0%	CCOC(=O)c1cnc(-c2ccccc2)nc1N
-1%	CN1CCc2c(sc3c2c(NCc2ccco2)nc2nnnn23)C1
-29%	Nc1nc2c(c(=O)[nH]1)C(c1ccccc1)C1=C(N2)c2ccccc2C1=O (stereo not given)
-13%	CCOC(=O)CC1=C(C(=O)OCC)C(c2ccncc2)C(C#N)=C(N)O1 (stereo not given)
-7%	COc1cccc(NC(=O)NC2CCCCC2C)c1 (stereo not given)
11%	Cc1cc(C)nc(NS(=O)(=O)c2ccc(N3C(=O)C4CC=C(Cl)CC4C3=O)cc2)n1 (stereo not given)
-14%	CC(C)[C@H](NS(=O)(=O)c1ccccc1)C(=O)OCC(=O)Nc1ccccc1Sc1ccccc1
-5%	Cc1nc(N)c(Cc2ccccc2F)c(N)n1
8%	CC1C(=O)N2CCCc3cc(NC(=O)COc4ccc(Cl)cc4)cc1c32 (stereo not given)
-15%	Cc1c(C)c2ccc(OCC(=O)N(C)C3CCS(=O)(=O)C3)c(C)c2oc1=O (stereo not given)
31%[activator]	Cc1ccsc1C1C(C#N)=C(N)OC2=C1C(=O)CC(C)C2 (stereo not given)
?	CN(C)S(=O)(=O)c1cccc(COc2cccnc2[N+](=O)[O-])c1
3%	CCOc1ccc(OCCC(=O)OCC(=O)Nc2ccc(Cl)cn2)cc1
4%	N[C@@H](Cc1ccccc1)c1nnc2sc(SCc3ccccc3)nn12
-4%	COc1ccccc1-c1cc2nc(C)c(CCC(=O)Nc3cc(C)ccc3C)c(C)n2n1
7%	CC(=O)N/C(=C\c1ccccc1)C(=O)OCc1cccc(S(=O)(=O)N(C)C)c1
2%	CCC(CC)C1C(C#N)=C(N)SC(N)=C1C#N
-7%	O=C(CCc1ccc(S(=O)(=O)N2CCOCC2)cc1)NN=C1CCCCCCC1
-10%	COc1ccc(Cn2nc3n(c2=O)-c2ccccc2OC3)cc1
0%	O=C1C(=O)N(CCOCCO)C(c2ccccn2)/C1=C(\O)c1ccccc1 (stereo not given)
5%	CC(NC(=O)C1CCCC1)c1ccc2c(c1)OCCO2 (stereo not given)
-5%&7%	OC(Cn1cncn1)(Cn1cncn1)c1ccc(F)cc1F
-11%	CCC(C)c1ccc(NC(=O)COC(=O)CCNC(=O)c2ccco2)cc1 (stereo not given)
0%	CC(C)(C)OC(=O)NNC(=O)c1ccc(Cl)cc1
-24%	O=C(O)Cn1cc(C(=S)N2CCCCC2)c2ccccc21
8%	Cc1ccc(NC(=O)NNC(=O)COc2ccc(Cl)cc2)cc1
-15%	COc1ccc(OC)c(CN2CCN(C(=O)c3ccc(NS(=O)(=O)c4cccc([N+](=O)[O-])c4)cc3)CC2)c1
-9%	CCOc1ccc(S(=O)(=O)N2CCN(C(=S)NCc3ccccc3)CC2)cc1
0%	Cc1ccc(C)c(S(=O)(=O)NC(C)C(=O)NCc2ccccn2)c1 (stereo not given)
-18%	COc1ccccc1C(=O)OC(C)CN1CCN(C)CC1 (stereo not given)
-19%&12%	Cc1ccc2c(c1)N(CC(=O)NCCc1ccc(Cl)cc1)C(=O)c1cccnc1O2
-4%	Cc1c(Cl)cccc1Nc1nn2c(=O)c3ccc(C(=O)N(C)Cc4ccccc4)cc3nc2s1
-2%	Cc1nn(CC(=O)Nc2ccc(S(=O)(=O)N(C)C)cc2)c(C)c1[N+](=O)[O-]
24%	Nc1ccc(CSc2ccccc2)cc1
-4%	O=C(CNC(=O)c1ccc(Cl)cc1Cl)OCC(=O)c1ccc2c(c1)OCCO2
13%	COc1cc(NC(=O)C2Cc3ccccc3N2C(=O)c2ccccc2)cc(OC)c1 (stereo not given)
6%	CC(C)OCCCNC(=O)CN1C(=O)CSc2ccc(S(=O)(=O)N3CCOCC3)cc21
-14%	CC(C)(CNC(=O)c1cc(=O)[nH]c2ccccc12)N1CCOCC1
4%&18%	COc1ccc(S(=O)(=O)Nc2c(C)nc3nc(C)[nH]n3c2=O)cc1
-2%	COc1ccc(OCC(=O)OCCN(C)C)cc1
-10%	Cc1ccc(CSCCNC(=O)CN(c2ccc(F)cc2)S(C)(=O)=O)cc1
5%	O=S(=O)(c1ccc(F)c2ccccc12)N1CCCCC1
-3%	CCOC(=O)c1c(NC(=O)Cn2c(=O)oc3ccccc32)oc(C)c1C(C)=O
-4%	CCN1CCCC1CNC(=O)c1cc2cc(F)ccc2[nH]1 (stereo not given)
-3%	COc1cccc(-n2c(SCc3cccc(C)c3)nc3c([nH]c4ccccc43)c2=O)c1
8%	Cn1nnc2cc(C(=O)NCc3ccc4c(c3)OCO4)ccc21
-6%	C=CCN1C(=O)C(CC(=O)O)SC1=Nc1cccc([N+](=O)[O-])c1 (stereo not given)
